Screening data (PubChem)
Sa ugtP lethal: growth inhibition of ugtP-null S. aureus, primary screen, RN4220 ugtP deletion, OD600 | 330,000 compounds, 0.54% hits | 16 h; some inactives read as strong as hits | growth inhibition, % (concentration not given with the values);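 active = z-score under -3 and OD600 up to 0.15 on both plates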;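 note: plate controls were untreated wells for no effect and antibiotic for full effect; wells of about 80 µL received 100 nL stock; the first replicate is given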
BJeLR viability: MLPCN primary cell-based screen for lethality selective to Ras in HRASV12 cells | BJeLR (HRASV12) viability, CellTiter-Glo ATP luminescence, 48 h; reference of the scale not given here | inhibition, % (no concentration beside the values) | 300,000 compounds, 0.17% hits | AID 1554, 2009;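 active = replicate mean above 50%; inconclusive = above 50% but judged a plate artefact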;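 note: 50 nL library stock added to about 25 µL; numbers are from one replicate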
Bead autofluor: counter-screen for toxin protease inhibitors: compound fluorescence. compound autofluorescence counterscreen, microsphere flow cytometry; active compounds read high. fluorescence intensity (no concentration beside the values). 360,000 compounds, 3.1% hits;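 active = at least 3 SD above the mean of all compounds, about 16000 in these data; inconclusive = too few beads counted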;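 note: 100 nL of 1 mM stock went into each well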
PrP 5UTR inh: inhibition of PrP 5' UTR reporter expression | AID 488862, 2010 | inhibition, % (no concentration beside the values) | 340,000 compounds, 0.35% hits | cell-based PrP 5' UTR mRNA reporter, plate reader;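 active = every replicate at 50% or more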;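 note: 0 = median of the neutral control wells; tested in H4 reporter cells; numbers are from one replicate; inactives centre near -14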
Sa RN4220 lethal: growth inhibition of S. aureus RN4220, primary screen, OD600; 330,000 compounds, 0.33% hits; 16 h; inhibition, % (test concentration not listed);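 active = z-score of -3 or lower and OD600 up to 0.18 on both plates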;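 note: plate controls were untreated cells for no effect and reference antibiotic for full effect; stock transfer was 100 nL into about 80 µL; one replicate is shown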
Mtb hypoxia inh: PubChem AID 1159583; 300,000 compounds, 0.1% hits; fluorescence inhibition, % (concentration not given with the values); M. tuberculosis hypoxia-regulated fluorescent reporter, fluorescence;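 active = 35 to 45% if threefold the growth effect, above 45% if 1.5-fold the growth effect; inactive = the rest, general growth blockers included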;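 note: wells of about 50 µL received 100 nL stock; 0% = vehicle wells and 100% = reference inhibitor wells; whole bacteria with a GFP reporter of the hypoxia response; strong numbers were not always called active; many hits fall short of the cut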
Mtb hypoxia inh growth: further read-out of Mtb hypoxia inh, marked with its call; growth inhibition, %; measured here: M. tuberculosis growth (absorbance);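 0% = vehicle and 100% = reference antibiotic; read after six days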
An asterisk follows results filed as active; ? = inconclusive; . = not tested or not shown.

cpd	SMILES	PrP 5UTR inh	Bead autofluor	Mtb hypoxia inh	Mtb hypoxia inh growth	BJeLR viability	Sa ugtP lethal	Sa RN4220 lethal
1	c1cc(-c2nsc(-c3ccncc3)n2)ccn1	-24	3172	0	8	-8	11	3.9
2	O=C(CCC(=O)OCC(=O)c1cccc([N+](=O)[O-])c1)Nc1ccccc1Cl	-22	25045*	2	4	-4	4	3.1
3	O=c1c(=Cc2ccc(O)cc2)sc2n1CCCN=2	.	.	0	2	.	0	8.8
4	c1ccc(NN=C(Cc2nc3ccccc3[nH]2)c2ccccc2)cc1	.	.	-2	2	.	2	-2.4
5	Fc1ccccc1COc1ccc(C=NNC(=S)NCc2ccccc2)cc1	.	.	2	9	.	2	3.4
6	COC(=O)C1=CN(C(C)C)C=C(C(=O)OC)C1c1cc(Br)c(OC)c(OC)c1	0	23675*	0	7	-7	13	0.2
7	CCOc1ccccc1NC(=O)/C=C/c1ccc(S(=O)(=O)N2CCOCC2)cc1	-8	4131	5	5	.	12	1.6
8	CCCN(CC1CC1)C(=O)CSc1ncnc2sc(C)c(C)c12	-25	10475	9	9	3	-2	4.7
9	CC(C)(C)c1ccc(C2=CC(c3ccccc3)n3ncnc3N2)cc1 (configuration not stated)	-39	2828	.	.	-9	.	.
10	Cn1cnnc1SCC(=O)c1ccc2c(c1)OCO2	0	4216	.	.	7	8	-0.5
11	CCOC(=O)C1CCN(C(=O)c2ccccc2NC(=O)c2ccc(Cl)cc2)CC1	-4	1955	2	4	5	2	2.7
12	CC1CCCCN1C(=O)Cn1nnc(-c2cccnc2)n1 (configuration not stated)	-10	8547	6	5	13	6	4.3
13	Cc1ccc(C)c(NC(=O)CCc2c(C)nn(-c3ccc(N4CCCCC4)nn3)c2C)c1	-9	5798	17	1	-9	11	-4.9
14	O=S(=O)(c1ccc(Br)cc1)N1CCC(c2nc3ccccc3[nH]2)CC1	-2	3811	-2	-3	-2	1	1.4
15	CCN1CCN(C(=O)CCNC(=O)Cn2cnc3ccccc3c2=O)CC1	-33	2970	-6	-5	-8	3	-3.4
16	Cc1cccc(C(=O)OCC(=O)NCc2ccco2)c1	-7	3870	6	-4	.	5	7.3
17	Cc1cc(C(F)F)n2nc(C(=O)Nc3sc4c(c3C#N)CCC(C)C4)nc2n1 (configuration not stated)	8	6829	7	-2	-10	4	1.3
18	C=CCN1C(=O)c2ccc(C(=O)N(CCOC)c3c(N)n(CCCC)c(=O)[nH]c3=O)cc2C1=O	-18	6382	-5	-6	8	1	2.8
19	CN(C)S(=O)(=O)c1cccc(NC(=O)CN2C(=O)NC(Cc3ccccc3)C2=O)c1 (configuration not stated)	-28	5463	-4	3	.	3	2.6
20	CC1CC(C)CN(C(=O)c2ccc(N3CC4CC(C3)c3cccc(=O)n3C4)c([N+](=O)[O-])c2)C1 (configuration not stated)	-12	2647	-1	1	19	5	7.3
21	CC(=O)Nc1cccc(NC(=O)CS(=O)(=O)c2cn(CC(=O)N(C(C)C)C(C)C)c3ccccc23)c1	-6	4919	-13	-9	2	3	4.1
22	Cc1nc2c(C(=O)N3CCCCC3)cnn2c(C)c1Cc1ccccc1F	-50	11309	2	5	-3	0	1.6
23	CC(=O)c1ccccc1NC(=O)COC(=O)CCC1CCCC1	0	3617	5	3	.	3	2.4
24	CCOc1ccc(C(=O)Nc2cc(S(=O)(=O)Nc3ccccc3Cl)ccc2N2CCOCC2)cc1	-10	1988	.	.	4	.	.
25	CC1CN(C(=O)CCC(=O)NCCCN2CCN(Cc3ccccc3)CC2)c2cc(Cl)ccc2O1 (configuration not stated)	-28	5656	2	5	0	5	-1.2
26	COc1ccc(NC(=O)CNc2cccc(S(=O)(=O)N3CCCCCC3)c2)c([N+](=O)[O-])c1	-17	.	11	6	.	-2	-4.2
27	COc1ccc2c(c1)[nH]c(=O)c1sc3ccccc3c12	-19	5897	.	.	6	5	2.6
28	Cc1cc2nn(-c3ccccc3)nc2cc1NC(=O)c1cccs1	-82	7931	-1	3	9	31	-5.4
29	CCN(CC)S(=O)(=O)c1cccc(C(=O)N[C@H](C(=O)Nc2nc3ccc(F)cc3s2)C(C)C)c1	-74	2244	0	7	-12	1	-3.1
30	Cc1ccc(N2C(=O)NC(=O)C(CCc3ccccn3)(Cc3ccc(F)cc3)C2=O)cc1 (configuration not stated)	-16	4415	7	-11	7	6	2.4
31	CCOC(=O)CSc1[nH]c2cc(OC)ccc2c1[N+](=O)[O-]	-17	3698	9	-2	3	3	-2.3
32	CC(=O)C1=NOC(CNc2ncc(C(F)(F)F)cc2Cl)C1 (configuration not stated)	-30	4308	4	11	-5	6	5.6
33	O=C(N[C@@H]1C/C=C\C[C@H](CC(=O)N(CCO)Cc2ccccc2)C(=O)N[C@@H](Cc2c[nH]c3ccccc23)COC1=O)OCC1c2ccccc2-c2ccccc21	-16	3523	-2	4	.	4	-1.5
34	COCCNC(=O)c1ccc(N2CC3CC(C2)c2cccc(=O)n2C3)c(NC(=O)c2ccc(F)cc2)c1 (configuration not stated)	-15	5584	-4	-3	7	7	1.0
35	O=C(Nc1ccccc1)N(Cc1ccccc1)Cc1ccccc1	-14	10410	-1	11	9	10	3.4
36	CCCCCCCCCCCCN1CC(=CC(=O)OCC)c2cc(C(F)(F)F)ccc2S1(=O)=O	.	.	7	11	.	3	-1.8
37	CCc1nc(N[C@H](C(=O)O)C(C)C)c2oc3ccccc3c2n1	-18	4291	17	-7	-4	6	3.7
38	CC1=C(SCCC#N)S/C(=C2\SC(C)=C(SCCC#N)S2)S1	-16	5582	9	0	-11	-8	-0.8
39	COc1c2ccoc2c(OC(C)=O)c2oc(C)cc(=O)c12	-7	3662	10	8	-10	3	2.8
40	CC(=O)N1CCc2cc(S(=O)(=O)CCC(=O)NCc3ccc4c(c3)OCO4)ccc21	-17	3275	.	.	1	6	-3.4
41	Cc1cc(=O)[nH]c(SCC(=O)c2ccc(C(C)C)cc2)n1	-3	3012	.	.	-5	-7	5.1
42	COC(=O)c1cc(Nc2cc(C)c3c(O)cccc3n2)cc(C(=O)OC)c1	-28	3969	3	-1	-2	-10	-2.5
43	CCOC(=O)c1cc(C(=O)NCc2ccc(Cl)cc2Cl)nn1C	3	2345	-6	-8	8	-2	3.1
44	CCN(CC)S(=O)(=O)c1ccc(N2CCOCC2)c(NC(=O)COc2ccccc2C#N)c1	-9	4611	18	5	2	7	16
45	Cc1ccc(OCCNC(=O)c2ccc(NC(=O)CC3SC(N4CCCC4)=NC3=O)cc2)cc1 (configuration not stated)	-16	.	-2	-4	9	2	1.8
46	Cc1cc(C(=O)Nc2cnc3ccccc3c2)ccc1[N+](=O)[O-]	-80	2518	7	-2	7	6	2.6
47	C=CCN1CC[C@@]2(C)c3cc(O)ccc3CC1[C@@H]2C	-17	4375	.	.	12	.	.
48	COc1ccc(OC)c(NC(=O)C2CCCCC2)c1	-11	2041	1	0	5	0	6.0
49	COCC1CCN(Cc2cn(C)nc2-c2cccc(Cl)c2)C1 (configuration not stated)	-16	5167	0	1	-1	-1	1.8
50	O=c1cc(CNc2cc(C(F)(F)F)cc(C(F)(F)F)c2)nc2sccn12	-21	7912	2	4	-7	-9	-2.0
51	Cc1ccc(CN2C3CCCC2CC(NC(=S)NCc2ccccc2)C3)cc1 (configuration not stated)	-39	2771	-5	13	6	-14	-4.4
52	c1ccc(Cn2nnnc2C(c2cccnc2)N2CCN(C3CCCCC3)CC2)cc1 (configuration not stated)	-19	10228	14	6	3	6	4.6
53	CCCCN(C(=O)CSc1nncn1-c1ccccc1OC)c1c(N)n(Cc2ccccc2)c(=O)[nH]c1=O	44	4443	-7	3	-5	3	2.4
54	Oc1cccc(C(=S)N2CCN(Cc3ccccc3)CC2)c1	-20	3971	2	1	-5	5	2.1
55	CSC1=NCCN1C(=O)c1ccc(S(=O)(=O)N2CCCC2)cc1	43	4873	.	.	-2	-6	2.1
56	CCOc1ccc(NC(=O)CN(C)C(=O)c2c(-c3ccccc3Cl)noc2C)cc1OCC	-17	?	3	0	2	-6	-1.5

Grouped by structure, those above with a halogen.
cpd	SMILES	PrP 5UTR inh	Bead autofluor	Mtb hypoxia inh	Mtb hypoxia inh growth	BJeLR viability	Sa ugtP lethal	Sa RN4220 lethal
2	O=C(CCC(=O)OCC(=O)c1cccc([N+](=O)[O-])c1)Nc1ccccc1Cl	-22	25045*	2	4	-4	4	3.1
5	Fc1ccccc1COc1ccc(C=NNC(=S)NCc2ccccc2)cc1	.	.	2	9	.	2	3.4
6	COC(=O)C1=CN(C(C)C)C=C(C(=O)OC)C1c1cc(Br)c(OC)c(OC)c1	0	23675*	0	7	-7	13	0.2
11	CCOC(=O)C1CCN(C(=O)c2ccccc2NC(=O)c2ccc(Cl)cc2)CC1	-4	1955	2	4	5	2	2.7
14	O=S(=O)(c1ccc(Br)cc1)N1CCC(c2nc3ccccc3[nH]2)CC1	-2	3811	-2	-3	-2	1	1.4
17	Cc1cc(C(F)F)n2nc(C(=O)Nc3sc4c(c3C#N)CCC(C)C4)nc2n1 (configuration not stated)	8	6829	7	-2	-10	4	1.3
22	Cc1nc2c(C(=O)N3CCCCC3)cnn2c(C)c1Cc1ccccc1F	-50	11309	2	5	-3	0	1.6
24	CCOc1ccc(C(=O)Nc2cc(S(=O)(=O)Nc3ccccc3Cl)ccc2N2CCOCC2)cc1	-10	1988	.	.	4	.	.
25	CC1CN(C(=O)CCC(=O)NCCCN2CCN(Cc3ccccc3)CC2)c2cc(Cl)ccc2O1 (configuration not stated)	-28	5656	2	5	0	5	-1.2
29	CCN(CC)S(=O)(=O)c1cccc(C(=O)N[C@H](C(=O)Nc2nc3ccc(F)cc3s2)C(C)C)c1	-74	2244	0	7	-12	1	-3.1
30	Cc1ccc(N2C(=O)NC(=O)C(CCc3ccccn3)(Cc3ccc(F)cc3)C2=O)cc1 (configuration not stated)	-16	4415	7	-11	7	6	2.4
32	CC(=O)C1=NOC(CNc2ncc(C(F)(F)F)cc2Cl)C1 (configuration not stated)	-30	4308	4	11	-5	6	5.6
34	COCCNC(=O)c1ccc(N2CC3CC(C2)c2cccc(=O)n2C3)c(NC(=O)c2ccc(F)cc2)c1 (configuration not stated)	-15	5584	-4	-3	7	7	1.0
36	CCCCCCCCCCCCN1CC(=CC(=O)OCC)c2cc(C(F)(F)F)ccc2S1(=O)=O	.	.	7	11	.	3	-1.8
43	CCOC(=O)c1cc(C(=O)NCc2ccc(Cl)cc2Cl)nn1C	3	2345	-6	-8	8	-2	3.1
49	COCC1CCN(Cc2cn(C)nc2-c2cccc(Cl)c2)C1 (configuration not stated)	-16	5167	0	1	-1	-1	1.8
50	O=c1cc(CNc2cc(C(F)(F)F)cc(C(F)(F)F)c2)nc2sccn12	-21	7912	2	4	-7	-9	-2.0
56	CCOc1ccc(NC(=O)CN(C)C(=O)c2c(-c3ccccc3Cl)noc2C)cc1OCC	-17	?	3	0	2	-6	-1.5

Only Bead autofluor, BJeLR viability and Mtb hypoxia inh, for some of the entries so far:
No.	smiles	Bead autofluor	BJeLR viability	Mtb hypoxia inh
32	CC(=O)C1=NOC(CNc2ncc(C(F)(F)F)cc2Cl)C1 (configuration not stated)	4308	-5	4
33	O=C(N[C@@H]1C/C=C\C[C@H](CC(=O)N(CCO)Cc2ccccc2)C(=O)N[C@@H](Cc2c[nH]c3ccccc23)COC1=O)OCC1c2ccccc2-c2ccccc21	3523	.	-2
34	COCCNC(=O)c1ccc(N2CC3CC(C2)c2cccc(=O)n2C3)c(NC(=O)c2ccc(F)cc2)c1 (configuration not stated)	5584	7	-4

Outcome played no part in choosing rows; about 3.9% have a hit in one of these screens.
